Screening data as filed in PubChem.
TRPV1 PAM: human TRPV1 potentiation. Q8NER1. TRPV1-expressing cells, Fluo-8 calcium influx, capsaicin EC20 potentiation; host cell line not named in the record; control for the full effect not named in the record. potentiation, % at 8.33 µM. 320,000 compounds, 0.02% hits. AID 540277; active means potentiation above 80%; inconclusive means 30% to 80%; inactive means below 30%; also: 0% is about no effect
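Cells expressing TRPV1 were dye-loaded with Fluo-8 and read kinetically: 10 s baseline, 3 min after compound (agonist portion), then 2 min after EC20 capsaicin (allosteric enhancer portion). Calcium-bound dye fluorescence at 480/520 nm.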
Menin MLL FP FL: inhibitors of human menin-MLL interaction, wild-type MLL peptide; Fluorescence polarization, fluorescein-MLL peptide displacement from menin; FP activity change, % at 61.4 µM; 290,000 tested, under 10 active; inconclusive = falling polarisation curve, or a change in total fluorescence; inactive = total fluorescence flat and polarisation flat or rising; no compound was filed as active; the % refers to the polarisation; negative = inhibition;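 also: % of control where 0% means no effect; inhibitors lower the polarisation; unlabelled MLL peptide was the positive control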
Sfp inh: inhibitors of Bacillus subtilis Sfp phosphopantetheinyl transferase | Q9F4F7 | Biochemical Sfp PPTase activity, qHTS | Potency, µM, for inactives: max response, negative = inhibition, most hits filed as inhibitors | 310,000 compounds, 3.5% hits; active = well fitted inhibition curve with a large enough effect; inconclusive = small, poorly fitted or top-dose-only effect, or another doubt; inactive = no such curve, though single readings can be large or run the other way;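 also: the enzyme is Sfp with the accession as filed and its product quenches rhodamine fluorescence; potency is read from the fitted curve at half-maximal effect; 0% = enzyme reaction without inhibitor and -100% = no enzyme wells; top concentration of the series not given in the record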
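Fluorescence-quenching assay with 15 nM Sfp, 5 uM rhodamine-CoA and 12.5 uM BHQ-2-labelled ybbR peptide in pH 7.6 Hepes/MgCl2 buffer. Enzyme was pre-incubated with compound for 15 min at room temperature. Rate was taken from the 30-min fluorescence change (525/598 nm).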
gsp antag: gsp mutant antagonism; Potency, µM (titrated, usually from 76.9 µM), for the others: at the highest dose activity change, negative = inhibition, usual class: inhibitors; AID 624288; gsp-mutant cells, cAMP HTRF, 30 min; control for the full effect not named in the record; 340,000 compounds, 0.4% hits; active = falling curve of any shape with a large fitted effect; inconclusive = falling curve, mostly with a smaller effect; inactive = flat or rising curve; cell line not stated here;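 also: intracellular cAMP measured with PDE inhibitor Ro 20-1724 present during compound exposure; potency is read from the fitted curve at half-maximal effect; % is scaled to controls: 0 for no effect and ±100 for the full control effect; nearly all actives have a fitted effect of over 65% in size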
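Cells in G418 medium, seeded 16-24 h, 37C; buffer exchange to DPBS + 1 mM CaCl2, 0.5 mM MgCl2, 0.05% BSA; cpds in DMSO + […] (300 uM stock), 30 min 37C; HTRF cAMP detection.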
TRPML1 blocker: human mucolipin-1 channel inhibition; TRPML1-inducible cells, Ca2+ dye fluorescence, FDSS; active compounds read low; inhibition of EC80 agonist-evoked calcium signal; 390,000 compounds, 0.02% hits; Q9GZU1; activity change, negative = inhibition, % (test concentration not listed); in the data active means activity change below about -50%; inconclusive means about -30% to -50%; inactive means above about -30%;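 also: stimulus is agonist 54-4 at its EC80 concentration; % is scaled to controls: 0 for no effect and ±100 for the full control effect; compound concentration not given in the record; the text of the record puts the active cut at -80%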
Target sequence (Q9GZU1 whole entry, looked up): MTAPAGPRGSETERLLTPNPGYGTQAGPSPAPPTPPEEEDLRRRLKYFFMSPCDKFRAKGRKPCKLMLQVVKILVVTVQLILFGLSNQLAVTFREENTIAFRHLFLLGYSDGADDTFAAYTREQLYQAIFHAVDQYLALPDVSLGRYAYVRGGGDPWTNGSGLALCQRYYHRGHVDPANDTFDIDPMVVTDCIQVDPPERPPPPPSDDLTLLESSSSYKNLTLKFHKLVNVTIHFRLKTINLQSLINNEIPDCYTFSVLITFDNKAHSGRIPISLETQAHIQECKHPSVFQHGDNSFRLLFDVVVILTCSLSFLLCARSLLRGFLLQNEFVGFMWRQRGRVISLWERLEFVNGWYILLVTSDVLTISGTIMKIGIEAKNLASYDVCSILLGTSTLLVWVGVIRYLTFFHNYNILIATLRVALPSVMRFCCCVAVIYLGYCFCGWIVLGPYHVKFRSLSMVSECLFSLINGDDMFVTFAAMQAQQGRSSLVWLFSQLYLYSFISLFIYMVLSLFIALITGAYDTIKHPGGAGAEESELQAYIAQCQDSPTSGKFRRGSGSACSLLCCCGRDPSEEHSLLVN
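Calcium fluorescence in TRPML1-DL cells induced overnight with Tet: a 110 s read after compound pin addition, then a 110 s antagonist read after challenge with 54-4 at 4 uM final (EC80).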
gsp ag: activates gsp, the McCune-Albright syndrome mutation; gsp mutant cells, cAMP HTRF, 30 min; control for the full effect not named in the record; Potency, µM (series often up to 76.9 µM), without a hit: at the top dose activation (cAMP increase), actives largely listed as activators; 340,000 compounds, 0.13% hits; AID 624287; active = well fitted activation curve with a large enough effect; inconclusive = small, poorly fitted or top-dose-only effect, or another doubt; inactive = no such curve, though single readings can be large or run the other way; cell line not stated here;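 also: phosphodiesterase inhibitor Ro 20-1724 added with compounds to block cAMP breakdown; potency is read from the fitted curve at half-maximal effect; nearly all actives have a fitted effect of over 60% in size; about a fifth of the inactives were tested at one dose only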
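Cells in DMEM/10% FBS with G418 were pretreated with compounds in DMSO plus […] (300 uM stock) for 30 min at 37C. cAMP was measured by HTRF (cAMP-d2 plus anti-cAMP antibody-K) after 30 min at room temperature.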
ClpP mod: qHTS Assay for Activators of ClpP; 340,000 compounds, 1.9% hits; purified B. subtilis ClpP, FRET peptide cleavage, 20 min; ATP-dependent Clp protease proteolytic subunit (Bacillus subtilis (strain 168)), P80244; Potency, µM (top dose mostly 57.5 µM), for inactives: at the highest dose activity change, negative = active; AID 651965, 2013; active = well fitted falling curve with a large enough effect; inconclusive = small, poorly fitted or top-dose-only effect; inactive = no such curve, though single readings can be large or run the other way; also: potency is read from the fitted curve at half-maximal effect; the source files actives as falling curves though it sought activators and does not explain the sign; nearly all actives have a fitted effect of over 65% in size; many hits overshoot -100%
Target sequence (P80244 whole entry, looked up): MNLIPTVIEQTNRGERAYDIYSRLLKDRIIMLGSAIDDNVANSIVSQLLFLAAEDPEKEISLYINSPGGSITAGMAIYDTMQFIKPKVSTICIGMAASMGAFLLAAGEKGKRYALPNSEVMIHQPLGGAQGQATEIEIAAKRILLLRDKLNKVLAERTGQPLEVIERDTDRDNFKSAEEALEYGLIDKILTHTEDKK
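FRET quenching reversal measured ClpP activation: 10 microg/mL B. subtilis ClpP at pH 8 with the FRET-FV decapeptide, read at 430 nm after 320 nm excitation. The 20-min minus 0-min signal was scaled between DMSO/no-enzyme wells and ADEP (5.8 microM final).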
An asterisk follows results filed as active; ? = inconclusive; . = no result given; & = joins results of further samples; [ ] = another dose, or the depositor's remark. Outcome played no part in choosing rows; 4.9% or so of the library scored in one or more.

Values in the order – TRPV1 PAM, Menin MLL FP FL, Sfp inh, gsp antag, TRPML1 blocker, gsp ag, ClpP mod
> O=C(Nc1ccccc1C(F)(F)F)N1CCN(c2ccc3nnc(-c4ccc(F)cc4)n3n2)CC1
→ 11, 1.6, 1%, -6%, -4&-15, 15%, -4.4%&-5.5%
> CCOC(=O)N1CCC(NC(=O)c2cc(C(=O)Nc3ccc(OC)c(OC)c3)ccc2CO)CC1
→ 29, -0.5, 8%, 0%, 18, -14%, 1.6%
> CCCCCOc1ccc(/C=c2\sc3nc(=O)c(-c4ccccc4)nn3c2=O)cc1OC
→ -4, -11, -7%, 11%, -24, 12%, -3.6%
> COc1cccc(-n2c(C)n[nH]c2=O)c1
→ -4, -0.7, 8%, 2%, 11, -34%[inhibitor], -0.6%
> COc1ccc(OCC(=O)N/N=C(/C)Cc2ccccc2)cc1
→ -29, -0.1, 5%, 0%, 9, -3%, -0.2%
> CC(OC(=O)c1ccc2ccccc2n1)C(=O)Nc1ccc(N2CCOCC2)cc1 (stereo not drawn)
→ 28, 1.6, -5%, 0%, 1, -23%, -1.0%
> COc1ccc(CCC(=O)OCC(=O)Nc2sccc2C(N)=O)cc1
→ 8, ., ., -5%, -10, ?, -4.8%
> Cc1ccc(C2C3=C(CCCC3=O)Nc3nc(SCC(=O)NCc4ccco4)[nH]c(=O)c32)cc1 (stereo not drawn)
→ 11, 0.3, -1%, 2%, -29, -2%, 20µM*
> CCc1ccc(NC(=S)N(CCCN2CCOCC2)Cc2ccccn2)cc1
→ -5, ., -12%, -18%, -8, 13%[15.4 µM], -1.0%
> O=C(Nc1ccccc1C(=O)N1CCOCC1)C1CCC(=O)N1C1CCCC1 (stereo not drawn)
→ 16, 1.5, -3%, 4%, -16, -39%[inhibitor], 0.0%
> O=C(CN1C(=O)/C(=C/c2ccccc2Cl)SC1=S)NC1C=CS(=O)(=O)C1 (stereo not drawn)
→ -2, ., -16%, -15%, -7, 2%, .
> COc1cccc(-c2ncc3ccccc3c2COC(=O)N2CCOCC2)c1
→ 5, ., ., -5%, 15, ., 0.1%
> CCC(Oc1ccccc1)C(=O)O/N=C(\N)c1ccc(OC)c(OC)c1 (stereo not drawn)
→ 7, 1.3, -24%, -10%, -10, ?, -3.9%
> O=S(=O)(Nc1cccc(-n2cnnn2)c1)c1ccc(Cl)cc1
→ 0, ., 11%, -8%, -3, 2%, .
> Nc1ccc2nc(CCc3ccccc3)[nH]c2c1
→ -7, 4.9, ?, 9%, 1, 0%[15.4 µM], -8.0%
> Oc1cccc(-c2nc3ccc4ccccc4c3c3c2CCC3)c1
→ -11, 3.1, 3%, -11%, 3, 1%, -19%
> O=C(O)c1ccccc1/C=N/NC(=S)NCc1ccccc1
→ ., 1.3, -18%, -2%, 4, 2%[15.4 µM], .
> OC(COCC1COc2ccccc2O1)CN1CCN(c2ccccn2)CC1 (stereo not drawn)
→ ?, 0.6, 0%, -1%&0%, 12&11, 6%&-16%, -2.7%
> O=C(CSc1ccc2ccccc2c1)Nc1ncccn1
→ -4, 6.8, 9%, 10%, -8, ?, -2.5%
> Cc1cc(=O)oc2c1c(C)nn2-c1ccc(C(=O)OC(C)C)cc1
→ 6, ?, 2%, ., ., ., .
> CCOC(=O)C1=C(N)n2c(s/c(=C\c3cccnc3)c2=O)=C(C(=O)OC)C1c1cccnc1 (stereo not drawn)
→ ., ., ., -14%, 25, 21%[15.4 µM], -3.1%
> CC1CC(C)(C)NC(=S)N1CCCC(=O)Nc1ccc(F)c(F)c1 (stereo not drawn)
→ -13, -2.6, 17%, 6%, 0, ?, -2.3%
> Cn1nccc1NC(=O)Nc1cccc([N+](=O)[O-])c1
→ 15, -1.4, 9%, 1%, 22, -4%, -0.1%
> Cc1ccc(C(=O)NCC(=O)Nc2ccc(S(=O)(=O)Nc3cc(C)nc(C)n3)cc2)cc1
→ ., ., ., 7%, -4, 10%, 0.2%
> O=C(NCCc1ccc(Cl)cc1)C1CCN(S(=O)(=O)N2CCCC2)CC1
→ -32, 1.1, 7%, ?, 2, -31%[inhibitor], -7.9%
> COc1ccc(Cn2nnc3c(C)n[nH]c(=O)c32)cc1
→ 17, 0.3, 14%, 26%, -15, -1%, .
> O=C(CN1CCOCC1)N1c2ccccc2Sc2ccccc21
→ 17, -1.1, 10%, -13%, 26, 10%, 1.4%
> Cc1cc2occ(CC(=O)N(CCC(C)C)c3c(N)n(Cc4ccccc4)c(=O)[nH]c3=O)c2cc1C
→ 5, ., ., 0%, 0, -1%[15.4 µM], .
> COc1cccc(-c2nc3ccc([N+](=O)[O-])cc3o2)c1
→ 5, -0.3, 17%, 5%, -8, -1%[15.4 µM], 1.8%
> Cc1ccc(S(=O)(=O)N2CCN(Cc3nc4ccccc4[nH]3)CC2)cc1C
→ -4, -0.4, 4%, -3%, -3, -29%, -1.9%
> CSc1sc(C)cc1C1C(C#N)=C(N)N(c2cccnc2)C2=C1C(=O)CCC2 (stereo not drawn)
→ -5, -0.1, -13%, 4%, 24, -15%, -3.5%
> COCC(C)NC(=O)c1ccc(Cl)c(Cl)c1 (stereo not drawn)
→ -14, -0.6, 3%, 6%, 17, -38%[inhibitor], 14µM*
> COC(=O)Nc1ccc2c(c1)N(C(=O)CCN1CCN3CCCC3C1)c1ccccc1S2 (stereo not drawn)
→ -13, 0.7, -5%, 6%, 3, ?, 1.5%
> CN(C(=S)Nc1ccc(SC(F)F)cc1)C(c1ccccc1)c1ccccc1
→ -5, 9.1, 17%, 6.3µM*, 19, 2%, -1.9%
> Cc1ccc(S(=O)(=O)NCCNC(=O)CN2CCCC2)cc1
→ 13, 2.5, 6%, 16%, -7, 8%, 1.6%
> C/C(=C\c1ccco1)CN1CCN(Cc2ccc(C)o2)C(CCO)C1 (stereo not drawn)
→ 0, -4.0, 12%, -11%, 45, 0%[15.4 µM], .
> O=C(CC12CC3CC(C1)CC(CC(=O)NC1=NCCS1)(C3)C2)NC1=NCCS1
→ 5, 3.3, 0%, 5%, 0, 0%[15.4 µM], 0.1%
> O=C(CCS(=O)(=O)Cc1ccccc1)Nc1ccc2c(c1)OCCO2
→ -9, 1.5, 19%, 5%, 6, 16%[15.4 µM], .
> Cc1cccc(NC(=S)NN2CCOCC2)c1C
→ 0, -3.1, -5%, -2%, -5, 0%, 1.1%
> Cc1ccc(C2C3CN(C(C)C)CC=C3C(C#N)=C(N)C2(C#N)C#N)cc1 (stereo not drawn)
→ ., ?, -9%, ?, -9, 5%, 20µM*
> Cc1ccc(-n2nnc3c(=O)n(CC(=O)NCc4ccco4)cnc32)cc1
→ -4, 0.4, 11%, 2%, 16, ?, 0.0%
> COc1ccc(N2CC(C(=O)N(CC(C)C)c3c(N)n(Cc4ccccc4)c(=O)[nH]c3=O)CC2=O)c(OC)c1 (stereo not drawn)
→ -7, ., ., 14%, 32, 29%[15.4 µM], .
> O=c1[nH]c(C2CCN(S(=O)(=O)c3ccc(S(=O)(=O)NC4CC4)cc3)CC2)nc2c1nnn2Cc1ccc(F)cc1
→ -3, ., -1%, -15%, 0, -3%[15.4 µM], .
> COc1ccc2c(c1)OC(O)(C(F)F)CC2=O (stereo not drawn)
→ -21, 4.3, 7%, 15%, -5, -13%, -3.2%
> C=CC(C)(C)c1[nH]cnc1/C=C1\NC(=O)C(C(C)C)NC1=O (stereo not drawn)
→ -2, -1.1, ?, 13%, 1, -72%, -15%
> COc1ccc(OC)c(S(=O)(=O)N2CCC(C(=O)N3CCCCCC3)CC2)c1
→ -4, -0.3, 6%, -2%, -19, -21%[15.4 µM], .
> CCCCN(C)C(=O)c1nc2ccccn2c1CN1CCN(C/C=C/c2ccccc2)CC1
→ 10, -4.2, 4%, -3%, 42, 4%[15.4 µM], .
> CC(C)Cn1c(N)c(C(=O)COC(=O)c2cc(C(F)(F)F)nc3c(C(F)(F)F)cccc23)c(=O)n(C)c1=O
→ 6, 1.2&-0.2, 13%&11%, ., ., ., .
> Cc1cc(C)cc(NC(=O)c2cccn2-c2ncc(C(F)(F)F)cc2Cl)c1
→ ., -1.6, 24%, -14%, 13, 23%, -2.9%
> CC(C)(C)C(=O)OCc1nc(-c2ccc3c(c2)OCCO3)cs1
→ -18, 1.0, ?, -5%, -4, 1%, -0.4%
> CCCN1C2CCCC1CC(NC(=S)Nc1cc(C)ccc1C)C2 (stereo not drawn)
→ 9, -5.7, 24%, 8%, -6, -30%, 0.7%
> N#Cc1cc(Nc2c(N)nc[nH]c2=O)c([N+](=O)[O-])cc1C#N
→ 9, -10, 15%, 14%, -6, ?, .
> Clc1nc(-c2cccnc2)nc2scc(-c3ccccc3)c12
→ -8, 12, -48%, -24%, 21, -4%, -29%
> O=S(=O)(NCc1cccnc1)c1ccc(Cl)s1
→ -5, -1.3, 4%, 8%, -22, 3%, -5.6%
> COc1ccc(C(CCN(Cc2ccc(OC)c(OC)c2)C(C)=O)c2ccccc2)cc1 (stereo not drawn)
→ -9, 1.3, 3%, ?, 79, ?, -23%
> COc1ccc2cc3cc(C(=O)Nc4cc(OC)c(OC)c(OC)c4)oc3nc2c1
→ 1, 6.2, -13%, 14%, -9, ?, -0.2%
> COC(=O)c1onc(-c2c(C)cc(C)cc2C)c1C(=O)OC
→ 19, 2.1, 24%, -18%, -9, -26%, -2.6%

Sorted by length of the SMILES (lowest first): part of the list above.
Values in the order – TRPV1 PAM, Menin MLL FP FL, Sfp inh, gsp antag, TRPML1 blocker, gsp ag, ClpP mod
> Nc1ccc2nc(CCc3ccccc3)[nH]c2c1
→ -7, 4.9, ?, 9%, 1, 0%[15.4 µM], -8.0%
> COc1ccc2c(c1)OC(O)(C(F)F)CC2=O (stereo not drawn)
→ -21, 4.3, 7%, 15%, -5, -13%, -3.2%
> O=C(CC12CC3CC(C1)CC(CC(=O)NC1=NCCS1)(C3)C2)NC1=NCCS1
→ 5, 3.3, 0%, 5%, 0, 0%[15.4 µM], 0.1%
